TRPML1 agonist: agonists of human TRPML1 channel; activation, % (concentration not given with the values); 410,000 tested, 0.12% active; TRPML1-expressing cells, Ca2+ dye fluorescence, FDSS; host cell line not named in the record; reference of the full effect not given here; AID 624414; Q9GZU1; in the data active = activation above about 50%; inconclusive = about 30% to 50%; inactive = below about 30%; note: 0% is about no effect; the text of the record puts the active cut at 80%
Target sequence (Q9GZU1 whole entry, looked up): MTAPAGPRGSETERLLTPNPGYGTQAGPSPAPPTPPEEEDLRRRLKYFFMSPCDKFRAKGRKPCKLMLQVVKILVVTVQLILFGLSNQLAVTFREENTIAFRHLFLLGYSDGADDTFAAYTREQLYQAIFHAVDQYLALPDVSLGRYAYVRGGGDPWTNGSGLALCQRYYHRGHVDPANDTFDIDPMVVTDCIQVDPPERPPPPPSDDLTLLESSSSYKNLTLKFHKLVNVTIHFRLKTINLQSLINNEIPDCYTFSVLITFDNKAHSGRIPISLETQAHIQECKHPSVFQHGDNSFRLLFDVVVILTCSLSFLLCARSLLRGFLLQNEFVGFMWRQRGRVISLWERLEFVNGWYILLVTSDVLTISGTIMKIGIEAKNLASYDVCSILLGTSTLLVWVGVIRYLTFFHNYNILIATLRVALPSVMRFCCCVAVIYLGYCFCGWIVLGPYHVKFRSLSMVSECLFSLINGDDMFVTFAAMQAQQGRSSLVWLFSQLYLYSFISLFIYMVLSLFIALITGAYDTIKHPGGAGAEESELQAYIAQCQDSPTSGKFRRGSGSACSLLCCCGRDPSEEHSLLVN
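In this qHTS format, compounds were pin-transferred onto Ca8-dye-loaded TRPML1-DL cells induced with Tet overnight, and intracellular Ca2+ fluorescence was recorded kinetically for 110 s after a 10 s baseline. A subsequent 4uM final 54-4 (EC80) addition followed by a second 110 s read served as the antagonist phase.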
PINK1 expr mod: modulators of PINK1 expression; PINK1 immunofluorescence, high-content cytometry, 24 h; Potency, µM (doses to about 76.6 µM), for inactives: at the top dose activation (PINK1 increase), actives largely listed as activators; 410,000 tested, 0.2% active; active = well fitted activation curve with a large enough effect; inconclusive = small, poorly fitted or top-dose-only effect; inactive = flat fitted curve, though single readings scatter; cell line not stated here;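 note: potency is the fitted concentration of half-maximal effect; % of control where 0% means no effect; nearly all actives have a fitted effect of over 65% in size; a mitochondrial uncoupler was the plate control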
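PINK1 protein, normally rapidly degraded, was detected by immunofluorescence after 24 hour compound treatment of a stable cell line. Titration data (5 concentrations) came from laser-scanning cytometry, with CCCP-treated wells as controls.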
Six1-Eya2 inh: blocks human Six1 binding to Eya2; Q15475+O00167; AlphaScreen GST-Six1/His-Eya2 binding, biochemical; active compounds read low; control for the full effect not named in the record; activity change, % (no concentration beside the values); 360,000 tested, 0.56% active; in the data active = activity change below about -65%; inconclusive = about -30% to -65%; inactive = above about -30%; note: % is set by controls: 0 for no effect and ±100 for the full control effect
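AlphaScreen with GST-Six1 and His-Eya2 (5X mix: 250 nM and 500 nM), glutathione donor and nickel acceptor beads; buffer 50 mM Tris pH 8.0, 300 mM NaCl, 1 mM TCEP; 1 h at 37 C in the dark.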
D2 ag: agonists of human D2 dopamine receptor (beta-arrestin); activation, % (concentration not given with the values); DiscoveRx PathHunter D2 beta-arrestin, luminescence, 90 min; 100% = 57 uM dopamine signal; 360,000 tested, 0.084% active; in the data active = activation above about 40%; inconclusive = about 15% to 40%; inactive = below about 15%; note: compound concentration not given in the record; the text of the record calls up to 30% inactive
Target sequence (P14416 whole entry, looked up): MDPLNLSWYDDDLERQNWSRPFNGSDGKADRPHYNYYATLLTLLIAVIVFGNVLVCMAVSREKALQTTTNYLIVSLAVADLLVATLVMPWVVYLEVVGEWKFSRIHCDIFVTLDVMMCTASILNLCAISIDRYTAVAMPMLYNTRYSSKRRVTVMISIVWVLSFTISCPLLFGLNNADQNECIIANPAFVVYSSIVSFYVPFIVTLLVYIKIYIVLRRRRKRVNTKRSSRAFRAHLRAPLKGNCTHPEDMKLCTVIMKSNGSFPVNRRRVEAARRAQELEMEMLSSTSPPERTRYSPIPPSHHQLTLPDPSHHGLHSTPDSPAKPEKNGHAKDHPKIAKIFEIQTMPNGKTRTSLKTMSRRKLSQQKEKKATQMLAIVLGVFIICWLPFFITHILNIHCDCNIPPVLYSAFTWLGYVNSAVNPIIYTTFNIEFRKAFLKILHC
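Agonist mode: compounds alone added to overnight-plated D2 PathHunter cells for 90 min at 37 C, with 57 uM final dopamine (EC100) defining full response. Beta-arrestin recruitment detected by chemiluminescent reagent, read after 1 h at ambient temperature.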
CtBP-E1A blk: inhibitors of CtBP/E1A interaction. AlphaScreen GST-E1A/His-CtBP binding, 1536-well; active compounds read low; control for the full effect not named in the record. activity change, % (test concentration not listed). 340,000 tested, 0.49% active. AID 651724; in the data active means activity change below about -65%; inconclusive means about -30% to -65%; inactive means above about -30%; note: % is set by controls: 0 for no effect and ±100 for the full control effect
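GST-E1A and His-tagged CtBP (125 nM each as 5X stock) were preincubated with pin-transferred compound for 2 h at 37 °C in the dark, then glutathione donor and nickel acceptor beads were added for 1 h before AlphaScreen reading.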
D2 PAM: human D2 receptor positive allosteric modulation; P14416; 360,000 tested, 0.23% active; potentiation, % (no concentration beside the values); DiscoveRx D2 beta-arrestin cells, luminescence, 90 min; 100% = 57 uM dopamine signal; active = potentiation of 50% or more; inconclusive = 30% to 50%; inactive = 30% or less;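 note: compound concentration not given in the record; tested on top of an EC20 dose of dopamine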
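PathHunter D2 cells, attached overnight at 37 deg C, received compound in DMSO plus dopamine at EC20 (50 nM final) for 90 min at 37 deg C. Beta-arrestin recruitment was read as luminescence after 1 h with detection reagent at ambient temperature.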
Starred values were filed as active, the others as inactive; ? = inconclusive; · = not tested or not shown; & = joins results of further samples; [ ] = another dose, or the depositor's remark.

SMILES	TRPML1 agonist	PINK1 expr mod	Six1-Eya2 inh	D2 ag	CtBP-E1A blk	D2 PAM
CCNC(=O)C1OC(n2cnc3c(N)ncnc32)C(O)C1O (stereo unspecified)	-0.7	0.9%	3	1.3	6	-8
O=P(CN1CCN(c2ccccc2)CC1)(N1CCCCC1)N1CCCCC1	-0.2	?	-13	9.3	-4	5
Cc1ccc(S(=O)(=O)NP(=O)(Oc2ccccc2)Oc2ccccc2)cc1	0.6	-4.4%[38.3 µM]	-3	2.3	-7	-6
O=C1NC(=O)N(c2ccc3c(c2)OCO3)C(=O)/C1=C/c1cccs1	0.7	11%	9	-0.3	-5	0
COC(=O)C1=C(c2ccc(OC(F)(F)F)cc2)C[C@@H]2CC[C@H]1N2C(=O)NCCOc1ccc(OC)cc1	1.1	16%	-10	-4.1	0	-4
N#Cc1cc(NC(=O)c2ccc(Cl)cc2)ccc1Sc1ccccc1	2.2	25µM*	10	6.0	32	-4
CCCCn1c(=O)c(C(=O)NCc2ccccc2OC)c(O)c2ccccc21	1.3	8.9%	6	-1.3	-5	-5
O=C(CN1CCCCC1)Nc1ccc(Br)cc1C(=O)c1ccccc1Cl	0.6	-1.4%	-1	-1.8	-4	-1
CN1CC(C(=O)c2ccc(Cl)cc2)C(c2ccccc2F)C1 (stereo unspecified)	0.0	5.7%	-7	-0.2	0	-19
Oc1ccc(Cl)c(Cl)c1	-0.9	1.3%	5	3.6	1	6
O=P(Nc1ccccc1)(Nc1ccccc1)Oc1ccc(Cl)cc1	1.1	-5.6%[38.3 µM]	3	-0.7	6	-8
Cc1ccc(CC(=O)N2CCN(C)CC2)cc1	0.1	0.1%	6	-4.5	-1	-5
CC1(C)CCCN1CCC(C(N)=O)(c1ccccc1)c1ccccc1	0.7	2.9%	7	3.5	2	-7
Cc1onc(-c2c(Cl)cccc2Cl)c1C(=O)Nc1ccc2c(C(F)(F)F)cc(=O)oc2c1	0.5	1.1%	-1	-5.5	-6	-7
CN1C(=O)C(=Cc2cc([N+](=O)[O-])ccc2N2CCCCC2)C(=O)N(C)C1=O	0.4	0.8%	10	2.7	2	-10
COc1ccc2[nH]c(C)c(CCNCc3cn(C)c4ccccc34)c2c1	-0.1	-1.7%	?	-1.3	1	-33
O=C(O)c1nn(Cc2ccc(Cl)cc2)c2ccccc12	-0.6	1.0%	9	-6.5	2	-6
CCC(=O)c1ccc(OCC(=O)N2CCN(CC(=O)Nc3ccccc3C(F)(F)F)CC2)cc1	-1.0	1.7%	-4	12	0	-1
O=C(N/N=C/c1c(O)n(-c2ccccc2)c(=O)[nH]c1=O)c1ccncc1	-1.0	1.1%	?	-1.0	-18	20
CC1=CC2OC3CC4OC(=O)C=CC=CC(=O)OCCC(C)C(O)C(=O)OCC2(CC1O)C4(C)C31CO1 (stereo unspecified)	0.0	1.1%	-2	-4.6	9	-15
Cc1ccc(CN(Cc2ccccc2)C(=S)NCC(=O)N2CCC3(CC2)OCCO3)o1	-1.2	1.9%	-11	-2.9	5	-36
CC12CN3CN(C1)CC(C)(C3)C2=NO	0.3	-0.4%	3	0.1	6	-8
NCCc1cc(O)c(O)cc1O	-0.1&-0.4	1.3%&-0.2%	?	-0.4&1.8	-6&-7	-6&-9
C=CCn1c(O)c(C(C)=Nc2ccc3c(c2)CCC3)c(=O)[nH]c1=O	-0.2	1.6%	-3	-3.2	5	0
CNCCc1c(C)n[nH]c1C	0.0	2.6%	-15	5.0	6	-6

(listing goes on)
SMILES	TRPML1 agonist	PINK1 expr mod	Six1-Eya2 inh	D2 ag	CtBP-E1A blk	D2 PAM
O=c1[nH]c(=O)n(C2CCCCC2)c(O)c1/C=N/N1CCCCC1c1cccnc1 (stereo unspecified)	·	-0.5%	2	-2.8	14	-1
CS(=O)(=O)c1ccc(C2=C(CNC(=O)c3cccs3)[C@H]3CC[C@@H](C2)N3CCOc2ccccc2)cc1	·	1.0%	0	4.7	-10	·
CC1=NOC2(C)Nc3ncnn3C(c3ccccc3)C12 (stereo unspecified)	-0.2	0.3%	3	1.1	5	-5
CCC(=O)O[C@@H]1[C@@H](OC(C)=O)[C@@]2(O)C(C[C@H](O)C2(C)C)[C@](C)(O)[C@H]2CC[C@@H]3[C@@H](O)[C@]12C[C@@]3(C)O (stereo partly specified)	-1.1	0.3%	-1	-0.1	5	-7
Cc1ccc(C(C)C)c(OCC(=O)N2CCN(Cc3nc4cc([N+](=O)[O-])ccc4n3C)CC2)c1	1.5	-0.3%	-9	-5.5	·	-1
CCCC(C)CC1(CCO)C(=O)NC(=S)NC1=O (stereo unspecified)	0.3	-1.0%	8	-3.9	4	-9
O=C1CCCN1c1ccc(S(=O)(=O)O)cc1 (tested in a mixture with another compound)	-0.3	2.8%	6	2.6	1	-4
C1=CC(Cc2cncs2)c2ccccc21 (stereo unspecified)	-0.3	-0.7%	4	-7.4	5	0
Nc1cc(Cl)cc(C(=O)O)c1Cl	-0.3	-0.2%	-4	-3.0	8	-1
COc1ccc(N/N=C/c2c(O)n(-c3ccc(C)c(C)c3)c(=O)[nH]c2=O)cc1	2.4	6.7%	-20	-2.4	-24	-9
CC1CCCCC1NC1CCN(C)CC1 (stereo unspecified)	-0.2	-0.8%	5	-3.4	·	-2
O=C(c1cc2cc3ccc(Cl)cc3nc2o1)N1CCC2(CC1)OCCO2	-0.5	0.9%	-1	-1.8	-2	7
Cc1sc(-n2c(C)cc(C=C3C(=O)NC(=O)NC3=O)c2C)c(C#N)c1C	0.3	6.6%	1	-4.5	-9	-8
CC(C)NCC(O)c1ccc(C2CCCC2)cc1 (stereo unspecified)	0.3	-0.8%	10	-2.2	4	-14
CSc1ccc(C(c2c(O)c3ccccc3oc2=O)c2c(C)n(C)n(-c3ccccc3)c2=O)cc1 (stereo unspecified)	1.9&-0.7	-1.8%&-0.7%	20	0.0	19	-8
Clc1cccc(Cl)c1CN1CCN(c2ccccc2)CC1	1.0	?	-11	2.3	0	-19
CSCCC(c1nnnn1C1CCCC1)N1CCC(n2c(=O)[nH]c3ccccc32)CC1 (stereo unspecified)	-0.5	-0.3%	-9	14	-5	8
CCOc1cccc(CNC2CN3CCC2CC3)c1 (stereo unspecified)	0.5	-0.1%[38.3 µM]	2	-3.1	3	-14
CC(=O)OC1C(O)C2=C3C4(C)C1C(C)(C)C(=O)CC4C3(O)C(OC(C)=O)C1(CC1C)C2=O (stereo unspecified)	-0.2	1.3%	-3	·	-10	·
O=C(c1ccccc1F)N1CCC2(CC1)OCCO2	0.9	-1.6%	16	-0.8	13	11
COC(=O)C1=C(c2ccccc2)C[C@@H]2CC[C@H]1N2C(=O)N1CCC(C)CC1	0.7	1.1%	3	-2.0	0	1
COC(=O)C1=C(c2ccc(OC)c(OC)c2)C[C@@H]2CC[C@H]1N2C(=O)NCCOc1ccc(OC)cc1	0.6	0.0%	7	-2.7	3	-2
Cc1cc(C)c(C(=O)N2CCC3(CC2)OCCO3)c(C)c1	0.1	-0.2%	-3	5.0	-4	-31
CCCCC(=O)N/N=C/c1c(O)n(CCC2=CCCCC2)c(=O)[nH]c1=O	0.6	-0.1%	-75*	-10	-83*	-17
Cc1cccc(C)c1-n1nnnc1C(c1cccs1)N1CCC(n2c(=O)[nH]c3ccccc32)CC1 (stereo unspecified)	0.6	9.1%	-13	9.9	-6	14

The results go on:
SMILES	TRPML1 agonist	PINK1 expr mod	Six1-Eya2 inh	D2 ag	CtBP-E1A blk	D2 PAM
N#CC1(c2ccccc2)CCN(C2CC(=O)N(c3cccc(F)c3)C2=O)CC1 (stereo unspecified)	0.5	0.3%	2	0.0	18	-6
CCOC(=O)c1c(C)n(Cc2ccc3c(c2)OCO3)c2ccc(O)cc12	0.7	·	-13	0.1	-3	-2
C[N+]1(C)C2CC[C@H]1CC(OC(=O)C(CO)c1ccccc1)C2 (stereo partly specified)	-0.5	2.0%	5	-1.5	0	-15
CCC(=O)c1cn(Cc2ccc(C#N)cc2)c2ccccc12	0.9	2.3%	9	0.3	1	4
CN1CCN(Cc2cn3cccnc3n2)CC1	0.7	-3.2%	1	5.2	2	-4
CC(=O)c1cn(Cc2ccccc2F)c2ccccc12	1.8	0.6%	12	-1.2	-7	0
O=C(c1ccc(Cl)cc1)C1CCCN(Cc2ccc3c(c2)OCCO3)C1 (stereo unspecified)	-0.6	8.4%	-14	-0.6	1	-6
Cc1ccc2c(c1)C1CN(C)CCC1N2C(=O)COc1ccc(S(=O)(=O)N2CCOCC2)cc1 (stereo unspecified)	1.0	-3.0%[38.3 µM]	0	0.1	7	-5
O=C1NCN(c2ccccc2)C12CCN(C(c1ccccc1)c1nnnn1-c1ccc3c(c1)OCCO3)CC2 (stereo unspecified)	-0.4	1.2%	-7	-4.6	-30	-6
O=C(c1ccc2c(=O)n(Cc3ccc4c(c3)OCO4)c(=S)[nH]c2c1)N1CCC2(CC1)OCCO2	0.3	5.2%[38.3 µM]	-2	·	-10	-10
CCC(C)C1(CC)C(=O)NC(=O)N=C1N (stereo unspecified)	-0.2	0.3%	7	-1.5	10	1
CN1CCCC(C(=O)c2ccc(Cl)cc2)C1 (stereo unspecified)	0.8	-0.1%	-23	1.2	0	0
COC(=O)C1=C(c2ccc(Cl)c(C(F)(F)F)c2)C[C@@H]2CC[C@H]1N2C(=O)NCc1cc(C)oc1C(F)(F)F	1.1	0.9%	3	-0.4	-2	-11
Cn1c(O)c(C=NCCN2CCN(C(=O)c3ccccc3)CC2)c(=O)n(C)c1=O	-0.6	-2.0%	1	-2.9	-2	-15
C[C@]12CCC3C(CC[C@H]4[C@@H](O)[C@H](O)CC[C@]34C)C1CCC2=O (stereo partly specified)	0.2	2.6%	0	0.0	8	0
C[C@]12CCC(=O)C=C1CCC1C2CC[C@@]2(C)C1CC[C@]2(C)O (stereo partly specified)	0.7	-1.9%	-1	1.1	4	-4

At a glance, some entries already given:
SMILES	TRPML1 agonist	PINK1 expr mod	Six1-Eya2 inh	D2 ag	CtBP-E1A blk	D2 PAM
CCOC(=O)c1c(C)n(Cc2ccc3c(c2)OCO3)c2ccc(O)cc12	0.7	·	-13	0.1	-3	-2
C[N+]1(C)C2CC[C@H]1CC(OC(=O)C(CO)c1ccccc1)C2 (stereo partly specified)	-0.5	2.0%	5	-1.5	0	-15
CCC(=O)c1cn(Cc2ccc(C#N)cc2)c2ccccc12	0.9	2.3%	9	0.3	1	4
CN1CCN(Cc2cn3cccnc3n2)CC1	0.7	-3.2%	1	5.2	2	-4
CC(=O)c1cn(Cc2ccccc2F)c2ccccc12	1.8	0.6%	12	-1.2	-7	0
O=C(c1ccc(Cl)cc1)C1CCCN(Cc2ccc3c(c2)OCCO3)C1 (stereo unspecified)	-0.6	8.4%	-14	-0.6	1	-6
Cc1ccc2c(c1)C1CN(C)CCC1N2C(=O)COc1ccc(S(=O)(=O)N2CCOCC2)cc1 (stereo unspecified)	1.0	-3.0%[38.3 µM]	0	0.1	7	-5
O=C1NCN(c2ccccc2)C12CCN(C(c1ccccc1)c1nnnn1-c1ccc3c(c1)OCCO3)CC2 (stereo unspecified)	-0.4	1.2%	-7	-4.6	-30	-6
O=C(c1ccc2c(=O)n(Cc3ccc4c(c3)OCO4)c(=S)[nH]c2c1)N1CCC2(CC1)OCCO2	0.3	5.2%[38.3 µM]	-2	·	-10	-10

Bioassay records (PubChem)

These rows are one share of the data, so the mix of outcomes need not match the whole.
